Screening data from PubChem BioAssay.
Sfp PPTase inh: blocks B. subtilis Sfp PPTase activity; Q9F4F7; Biochemical Sfp PPTase activity, qHTS; Potency, µM, inactives show max response, negative = inhibition, usual class: inhibitors; 310,000 tested, 3.5% active; AID 1490; active = well fitted inhibition curve with a large enough effect; inconclusive = small, poorly fitted or top-dose-only effect, or another doubt; inactive = no such curve, though single readings can be large or run the other way;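 also: the enzyme is Sfp with the accession as filed and its product quenches rhodamine fluorescence; potency is read from the fitted curve at half-maximal effect; 0% = enzyme reaction without inhibitor and -100% = no enzyme wells; top concentration of the series not given in the record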
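Reaction rates are the 30-min fluorescence difference (ex 525, em 598 nm) in wells containing 15 nM Sfp, 5 uM rhodamine-CoA and 12.5 uM BHQ-2-YbbR at pH 7.6 with 10 mM MgCl2.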
D2 PAM: human D2 receptor positive allosteric modulation; P14416; DiscoveRx D2 beta-arrestin cells, luminescence, 90 min; 100% = 57 uM dopamine signal; potentiation, % (concentration not given with the values); AID 624464; 360,000 tested, 0.23% active; active = potentiation of 50% or more; inconclusive = 30% to 50%; inactive = 30% or less;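 also: compound concentration not given in the record; tested on top of an EC20 dose of dopamine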
Target sequence (P14416 whole entry, looked up): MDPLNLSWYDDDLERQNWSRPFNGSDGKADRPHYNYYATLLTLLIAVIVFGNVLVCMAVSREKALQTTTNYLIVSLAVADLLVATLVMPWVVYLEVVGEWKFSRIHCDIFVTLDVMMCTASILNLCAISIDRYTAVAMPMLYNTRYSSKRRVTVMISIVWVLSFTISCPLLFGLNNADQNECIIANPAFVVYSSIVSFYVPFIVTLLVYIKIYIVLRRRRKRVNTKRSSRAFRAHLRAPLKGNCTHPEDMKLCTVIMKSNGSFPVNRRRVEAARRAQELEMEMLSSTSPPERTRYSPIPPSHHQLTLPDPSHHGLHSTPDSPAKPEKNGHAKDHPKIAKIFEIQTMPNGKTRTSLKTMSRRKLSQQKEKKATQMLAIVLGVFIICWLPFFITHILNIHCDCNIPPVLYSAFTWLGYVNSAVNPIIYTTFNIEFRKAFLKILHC
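PathHunter beta-arrestin assay in DiscoveRx D2 cells. Compounds were added with an EC20 of dopamine (50 nM final) for 90 min at 37 deg C. Luminescence was read 1 h after detection reagent, with 57 uM dopamine as the EC100 control.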
CtBP-E1A inh: blocks the CtBP interaction with E1A | AlphaScreen GST-E1A/His-CtBP binding, 1536-well; hits give low values; control for the full effect not named in the record | activity change, % (concentration not given with the values) | 340,000 tested, 0.49% active | AID 651724; in the data active means activity change below about -65%; inconclusive means about -30% to -65%; inactive means above about -30%; also: % is scaled to controls: 0 for no effect and ±100 for the full control effect
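Homogeneous bead-based format: GST-tagged E1A captured on glutathione donor beads, His-tagged CtBP on nickel acceptor beads; compounds precede bead addition by 2 h at 37 °C.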
TRPV1 potentiator: enhances activation of the human vanilloid receptor TRPV1. potentiation, % at 8.33 µM. Q8NER1. AID 540277. 320,000 tested, 0.02% active. TRPV1-expressing cells, Fluo-8 calcium influx, capsaicin EC20 potentiation; host cell line not named in the record; control for the full effect not named in the record; active means potentiation above 80%; inconclusive means 30% to 80%; inactive means below 30%; also: 0% is about no effect
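Fluo-8 calcium influx in TRPV1-expressing cells, kinetic read (ex 480/em 520 nm). Compound added and read 3 min for agonist activity, followed by capsaicin at EC20 final and 2 min further read for enhancement.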
Six1-Eya2 blk: Six1/Eya2 interaction inhibition; activity change, % (concentration not given with the values); AlphaScreen GST-Six1/His-Eya2 binding, biochemical; hits give low values; control for the full effect not named in the record; 360,000 tested, 0.56% active; Q15475+O00167; in the data active = activity change below about -65%; inconclusive = about -30% to -65%; inactive = above about -30%; also: % is scaled to controls: 0 for no effect and ±100 for the full control effect
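AlphaScreen with GST-Six1 and His-Eya2 (5X mix: 250 nM and 500 nM), glutathione donor and nickel acceptor beads; buffer 50 mM Tris pH 8.0, 300 mM NaCl, 1 mM TCEP; 1 h at 37 C in the dark.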
PINK1 modulator: changes PINK1 expression. PINK1 immunofluorescence, high-content cytometry, 24 h. Potency, µM (doses to about 76.6 µM), without a hit: at the top dose activation (PINK1 increase), most hits filed as activators. 410,000 tested, 0.2% active. AID 624263; active = well fitted activation curve with a large enough effect; inconclusive = small, poorly fitted or top-dose-only effect; inactive = flat fitted curve, though single readings scatter; cell line not stated here;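 also: potency is read from the fitted curve at half-maximal effect; % of control where 0% means no effect; nearly all actives have a fitted effect of over 65% in size; a mitochondrial uncoupler was the plate control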
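Compound titrations (5 concentrations, 24 h) on a stable cell line; DMSO and CCCP controls. Endpoint: fixed-cell PINK1 immunofluorescence with mitochondrial, cell and nuclear markers, scanned by microplate cytometer.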
D2 ag: human D2 receptor agonism in beta-arrestin assay. P14416. DiscoveRx PathHunter D2 beta-arrestin, luminescence, 90 min; 100% = 57 uM dopamine signal. activation, % (concentration not given with the values). 360,000 tested, 0.084% active; in the data active = activation above about 40%; inconclusive = about 15% to 40%; inactive = below about 15%; also: compound concentration not given in the record; the text of the record calls up to 30% inactive
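Agonist mode: compounds alone added to overnight-plated D2 PathHunter cells for 90 min at 37 C, with 57 uM final dopamine (EC100) defining full response. Beta-arrestin recruitment detected by chemiluminescent reagent, read after 1 h at ambient temperature.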
Starred values were filed as active, the others as inactive; ? = inconclusive; . = not tested or not shown; & = joins results of further samples; [ ] = dose if it differs, or a comment.

SMILES | Sfp PPTase inh | D2 PAM | CtBP-E1A inh | TRPV1 potentiator | Six1-Eya2 blk | PINK1 modulator | D2 ag
CC(C)C(c1nnnn1C(C)(C)C)N1CCN(c2cccc(Cl)c2)CC1 (centres undefined) | 8% | -19 | -4 | 1 | -4 | 2.6% | -1.7
COc1cccc(NC2c3ccccc3C(=O)N2Cc2ccco2)c1 (centres undefined) | ? | -1 | 1 | -10 | -6 | 1.8% | 4.7
c1ccc(-c2cn3nc(-c4ccccc4)sc3n2)cc1 | . | 1 | 1 | . | 1 | -1.3% | 2.1
CCOc1ccc(C2CC(c3ccccc3C)n3nc(N)nc3N2)cc1 (centres undefined) | 15% | -5 | -1 | ? | -2 | 2.1% | -1.2
COc1ccccc1N1CCN(C2=NS(=O)(=O)c3ccccc32)CC1 | -1% | -14 | 0 | -16 | -1 | -0.9% | -1.1
C/C(Cl)=C\Cn1c(Nc2cccc(C)c2)nc2c1c(=O)n(C)c(=O)n2C | -16% | 16 | 7 | -9 | -2 | . | 2.3
CN(Cc1ccco1)S(=O)(=O)c1ccc(CN2C(=O)c3cccnc3C2=O)s1 | 8% | ? | -6 | 7 | -9 | 2.3% | 6.8
Cc1nnc(SC(C(=O)c2ccccc2)c2ccccc2)[nH]c1=O (centres undefined) | 29% | 2 | 9 | 2 | 2 | 6.3% | 5.6
O=C1c2ccccc2C(=O)N1CCCCSc1nc2ccccc2o1 | -17% | 6 | 31 | -9 | 24 | 1.2% | -3.3
Cc1cccc(N=Nc2c(O)[nH]c3ccc(Br)cc23)c1 | 9% | -8 | -2 | 1 | 3 | 11% | 0.6
CCCCNS(=O)(=O)c1ccc(NC(=O)Cc2ccc(OC)cc2)cc1 | 17% | -5 | 9 | 4 | 8 | 4.6% | 1.6
CC(C)c1ccc(O)c(NC(=S)NC(=O)c2cccnc2)c1 | 1% | -32 | -10 | 14 | -11 | 9.5% | -14
Cc1ccc(C)c(N2CCN(C(=O)CCc3nc(-c4cccc(F)c4)no3)CC2)c1 | . | -2 | 9 | . | 6 | 0.3% | 0.9
COc1ccc(-c2nn(-c3ccccc3)cc2/C=N/NC(=O)c2ccc(Br)o2)cc1 | 25% | 5 | -4 | -13 | 4 | -0.7% | 0.4
CCCNC(=O)NCCc1c(C)[nH]c2ccccc12 | 25% | -4 | -9 | . | 6 | 0.4% | 4.8
Cc1c(NC(=O)Nc2cccc(F)c2)c(=O)n(-c2ccccc2)n1C | 23% | -18 | 4 | 3 | -1 | -1.6% | -2.8
Nc1nc(N)c2c(ccc3nccc32)[nH]1 | -3% | 52* | . | -10 | -19 | 1.1% | -1.4
CC(C)C(=O)N[C@@H]1c2ccccc2CC[C@@H]1O | . | . | -11 | . | -17 | 0.9% | -1.0
COc1ccc(-c2noc(N3CCC(C(=O)NCc4ccccc4Cl)CC3)n2)cc1 | -15% | -3 | 2 | -26 | 6 | 1.5% | -2.0
Cc1cccc(NC(=O)NCc2ccc3[nH]c(C)cc3c2)c1 | 21% | -8 | 0 | 13 | -5 | 0.5% | -3.2
O=C(c1cccc(S(=O)(=O)Nc2ccccc2Cl)c1)N1CCCCCC1 | . | -4 | -5 | 9 | 11 | -2.2% | -5.4
Cc1cc(C)n(C2CCCCC2OC(=O)c2ccccc2)n1 (centres undefined) | 9% | -14 | 1 | -12 | 6 | -0.6% | -2.7
O=C(Nc1ccc(F)cc1)C1CC(=O)n2ncnc2N1 (centres undefined) | 21% | -8 | 3 | -2 | 1 | 0.7% | -5.3
C=CCN(c1ccccc1OC)S(=O)(=O)c1cccc(C(=O)OC2CCOC2=O)c1 (centres undefined) | . | -1 | 1 | . | 7 | 4.1% | 0.9
C=CCOc1ccc(C2NC(=O)NC(C)=C2C(=O)OC)cc1 (centres undefined) | -2% | -10 | 2 | 0 | 0 | -1.1% | 0.1

Single records, from the list above. Values in the order: Sfp PPTase inh, D2 PAM, CtBP-E1A inh, TRPV1 potentiator, Six1-Eya2 blk, PINK1 modulator, D2 ag
Cc1cccc(NC(=O)NCc2ccc3[nH]c(C)cc3c2)c1 is listed with 21%, -8, 0, 13, -5, 0.5%, -3.2
Cc1cccc(N=Nc2c(O)[nH]c3ccc(Br)cc23)c1 is listed with 9%, -8, -2, 1, 3, 11%, 0.6

Following part.
SMILES | Sfp PPTase inh | D2 PAM | CtBP-E1A inh | TRPV1 potentiator | Six1-Eya2 blk | PINK1 modulator | D2 ag
COc1cccc(CN2CC(C(=O)NCCc3nccs3)CCC2=O)c1 (centres undefined) | . | -9 | -6 | . | 31 | 0.7% | -2.6
Cn1cc(S(=O)(=O)CC(=O)N2CCCc3ccccc32)c2ccccc21 | 16% | -3 | 8 | 3 | 4 | 0.6% | -0.2
COC(=O)CC1=NN(c2ccc(OC)cc2)C(=O)C1 | 12% | -3 | 7 | 7 | -2 | -0.8% | -22
NC(=S)NC(=O)/C=C/c1ccccc1 | 3% | -14 | 3 | 10 | 5 | -0.8% | -4.6
Cc1cccc(C(=O)O)c1[N+](=O)[O-] | . | 0 | 5 | -19 | 1 | -0.6% | 1.0
O=C1/C(=C/c2ccco2)Oc2c1ccc(O)c2CN1CCCCC1 | ? | -6 | 0 | -6 | 0 | -0.5% | -3.0
Cc1cc(C)cc(-c2nnc(SCC(=O)N3CCN(C(=O)c4ccco4)CC3)o2)c1 | 11% | -15 | -9 | 2 | -4 | 3.5%[38.3 µM] | -2.0
CCN(CC)C1CC(=O)N(c2cccc(Cl)c2)C1=O (centres undefined) | -2% | -3 | 0 | -6 | -5 | 2.9% | 4.4
O=C(C(Cc1ccccc1)n1cccc1)N1CCN(Cc2ccccc2)CC1 (centres undefined) | 3% | -9 | ? | -19 | -27 | -0.3% | -5.0
CC1CCCN(S(=O)(=O)c2ccc3oc(=O)ccc3c2)C1 (centres undefined) | 15% | -4 | 0 | 4 | -1 | 2.1% | -1.6
CCCCN(C)C(=O)C1CCN(Cc2cccc(OCc3ccccc3)c2)CC1 | -21% | -3 | -3 | 12 | 5 | 8.7% | -4.8
COC(=O)c1sccc1NC(=O)/C=C/C(=O)O | 19% | -8 | . | 12 | 8 | -1.2% | 5.1
NNC(=O)c1cccc(COc2ccc(Br)cc2)c1 | 11% | -18 | -18 | -37 | -6 | 2.6% | 1.4
COc1ccc(C(=O)N2CCC(=O)N(C(CO)Cc3ccccc3)CC2)cc1 (centres undefined) | -6% | -15 | 5 | 10 | 4 | -0.4% | -5.8
COc1cccc(-c2cccc(-c3nc(C(=O)Nc4ccc(-c5ccccc5)cc4)cc4c3[C@H](CCO)N(S(=O)C(C)(C)C)C4)c2)c1 (some centres undefined) | . | -4 | -15 | . | 6 | 0.4% | 5.0
CCN(CC(=O)Nc1c(F)cccc1F)C(=O)CCNC(=O)c1ccco1 | . | 4 | 0 | -7 | 3 | 3.1% | -1.4
COc1ccccc1OCC(=O)O/N=C(\N)c1ccccn1 | -3% | -20 | . | -5 | -4 | -0.7% | -2.9
COc1cc2c(cc1OC)CN(C(=O)/C=C/c1ccc(F)cc1)CC2 | 9% | -1 | -6 | -13 | -8 | -0.4% | 3.0
CCOC(=O)C1=C(c2ccccc2)N=c2s/c(=C\c3cc(OC)c(OC)c(OC)c3)c(=O)n2C1c1cccs1 (centres undefined) | 14% | -15 | -4 | -23 | -5 | 1.0%[38.3 µM] | -6.3
COC(=O)CNC(=O)CN1C(=O)N(c2ccccc2)C(N(O)C(=O)Nc2ccccc2)C1(C)C (centres undefined) | 8% | 2 | 9 | -5 | 0 | 0.4% | 4.0
Nc1nc(N)c(Cc2ccc(Cl)cc2Cl)c(N)n1 | 15% | -3 | 4 | 20 | -6 | -1.8% | 9.6
CC(NC(=O)c1cc2ccccc2oc1=O)c1ccc(O)cc1 (centres undefined) | 13% | -4 | -1 | 3 | -2 | 0.1% | -1.7
COC(=O)c1[nH]c2ccc(F)cc2c1NC(=O)CCN1CCN(Cc2ccc3c(c2)OCO3)CC1 | 4% | -38 | -4 | -1 | -9 | -1.9% | -4.6
CCOc1ccc(CCNC(=O)C(C)n2nc(C)n3c(cc4occc43)c2=O)cc1OCC (centres undefined) | 4% | 10 | -1 | -1 | -3 | -1.6%&-0.2% | -3.3
Cc1ccnc(NC(=O)CCC(=O)N(CC(=O)NC2CCCCC2)Cc2cccs2)c1 | 4% | -14 | 3 | ? | -4 | -1.4% | -1.9

New compounds follow.
SMILES | Sfp PPTase inh | D2 PAM | CtBP-E1A inh | TRPV1 potentiator | Six1-Eya2 blk | PINK1 modulator | D2 ag
Cc1ccc(Nc2cccc(C(F)(F)F)c2)nn1 | . | -7 | 9 | . | 7 | -2.6% | -1.6
Cc1ccc2c(CN3CC(C)CC(C)C3)cc(=O)oc2c1C (centres undefined) | -2% | -5 | -9 | 6 | -17 | 18% | 0.8
CC1(C)CCN(Cc2ccccc2)C1CC#N (centres undefined) | 9% | -17 | -1 | 1 | 0 | 0.7% | -3.7
C[C@@H]1CN([C@@H](C)CO)S(=O)(=O)c2ccc(C#CC3CCCCC3)cc2O[C@@H]1CN(C)Cc1cccnc1 | . | -1 | -20 | . | -17 | 3.4% | -12
O=C(COc1ccc(Cl)cc1)NNC(=O)C(=O)N1CCCCC1 | 1% | -8 | 6 | 9 | 2 | 11%[38.3 µM] | -2.7
CN(C)c1ccc(/C=N/Nc2cc(N3CCOCC3)nc(N3CCOCC3)n2)cc1 | -9% | -15 | 2 | 12 | -15 | 3.0% | -2.5
CC1CC(C)CN(C(=O)CSc2nc3ccsc3c(=O)n2Cc2ccccn2)C1 (centres undefined) | 7% | -9 | 1 | 7 | -7 | -0.4%[38.3 µM] | -2.3
O=c1[nH]n(-c2ccc(Cl)cc2)c(=O)c(Cl)c1Cl | -46% | -13 | -1 | 19 | -6 | 3.0%[38.3 µM] | -2.3

Entries listed so far that have an aryl thioether with sulfur outside any ring:
SMILES | Sfp PPTase inh | D2 PAM | CtBP-E1A inh | TRPV1 potentiator | Six1-Eya2 blk | PINK1 modulator | D2 ag
Cc1nnc(SC(C(=O)c2ccccc2)c2ccccc2)[nH]c1=O (centres undefined) | 29% | 2 | 9 | 2 | 2 | 6.3% | 5.6
O=C1c2ccccc2C(=O)N1CCCCSc1nc2ccccc2o1 | -17% | 6 | 31 | -9 | 24 | 1.2% | -3.3
Cc1cc(C)cc(-c2nnc(SCC(=O)N3CCN(C(=O)c4ccco4)CC3)o2)c1 | 11% | -15 | -9 | 2 | -4 | 3.5%[38.3 µM] | -2.0
CC1CC(C)CN(C(=O)CSc2nc3ccsc3c(=O)n2Cc2ccccn2)C1 (centres undefined) | 7% | -9 | 1 | 7 | -7 | -0.4%[38.3 µM] | -2.3
